# ELG1 DNA repair = inhibitors of ELG1-dependent DNA repair in HEK293T cells. 330,000 tested, 2.3% active. Potency, µM (titrated, usually from 46.1 µM), for inactives: at the highest dose activity change, negative = inhibition, most hits filed as inhibitors. HEK293T ELG1-luciferase reporter, luminescence, 16 h; DNA damage induced by 5-fluorouridine; also: potency is read from the fitted curve at half-maximal effect; % is scaled to controls: 0 for no effect and ±100 for the full control effect; nearly all actives have a fitted effect of over 55% in size
#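 In this reporter screen, reduction of luminescence relative to DMSO vehicle indicated activity. Compounds and 5-fluorouridine were added together to 2,000 cells per well, incubated for 16 hr at 37 °C, then developed with ONE-Glo.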
# TRPV1 agonist = human TRPV1 agonism. 320,000 tested, 0.19% active. activation, % at 8.33 µM. Q8NER1. AID 540275. TRPV1-expressing cells, Fluo-8 calcium influx, agonist mode; in the data active = activation above about 80%; inconclusive = between about 30% and that limit; also: 0% is about no effect
#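 Cells expressing TRPV1 were dye-loaded with Fluo-8 and read kinetically: 10 s baseline, 3 min after compound (agonist portion), then 2 min after EC20 capsaicin (allosteric enhancer portion). Calcium-bound dye fluorescence at 480/520 nm.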
# BRCA1 expr up = activators of BRCA1 expression; 380,000 tested, 1.1% active; AID 624202; Potency, µM (doses to about 46.1 µM), without a hit: top-dose activation, most hits filed as activators; MCF7-BRCA1-FFLuc reporter, luminescence, 48 h; response scale: scaled: vehicle 0%, 10 µM genistein 100%; also: potency is read from the fitted curve at half-maximal effect; nearly all actives have a fitted effect of over 80% in size; some results filed as inactive show a strong effect at the top dose
#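 MCF7-BRCA1-FFLuc cells, 2000/well in phenol-red-free MEM, attached 2 h then treated 48 h at 37 C. Luciferase luminescence read 15 min after reagent; normalized to genistein maximum activation (10microM) and DMSO, concentration-response fitted.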
# AT treatment = candidate therapy for ataxia-telangiectasia; […] A-T fibroblasts, KAP-1 phosphorylation AlphaLISA; neocarzinostatin DNA damage 30 min before lysis; Potency, µM (highest dose often 57.5 µM), inactives show at the top dose activation, actives largely listed as activators; 320,000 tested, 0.19% active; AID 485349; also: potency is read from the fitted curve at half-maximal effect; % of control where 0% means no effect; nearly all actives have a fitted effect of over 45% in size
#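 hTERT-immortalized A-T patient fibroblasts ([…]), 500 cells/well in OPTI-MEM, 1% FBS, got compounds for 60 min, then NCS for 30 min at 37C. Lysates were then assayed for phospho-KAP-1 by AlphaLISA (anti-pKAP1 donor, anti-KAP1 acceptor beads), 6 hr at 25C.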
# p53 reactivation = re-activators of mutant p53; 320,000 tested, 0.063% active; H1299 p53-A138V BP100-luciferase reporter, luminescence, 24 h; Potency, µM (top dose mostly 92.2 µM), for inactives: at the top dose activity change, positive = activation, hits mostly activators; AID 504706; also: potency is read from the fitted curve at half-maximal effect; % of control where 0% means no effect; nearly all actives have a fitted effect of over 45% in size
#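 p53-null H1299 cells stably carrying temperature-sensitive p53-A138V and a BP100-luciferase reporter were pinned with compounds (4-point, 1:5 series) and held 24 hrs at 37 deg C. Luminescence was read 10 min after detection reagent.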
# B2AR arrestin = recruits beta-arrestin to the human beta2-adrenergic receptor. P07550. beta-arrestin recruitment to beta2AR, cell-based reporter. Potency, µM (doses to about 46.1 µM), for inactives: at the top dose activation, most hits filed as activators. 330,000 tested, 0.02% active. AID 492947;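 also: potency is read from the fitted curve at half-maximal effect; 0% = DMSO controls and full agonism = EC100 isoproterenol or metaproterenol; nearly all actives have a fitted effect of over 65% in size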
# Target sequence (P07550 whole entry, looked up): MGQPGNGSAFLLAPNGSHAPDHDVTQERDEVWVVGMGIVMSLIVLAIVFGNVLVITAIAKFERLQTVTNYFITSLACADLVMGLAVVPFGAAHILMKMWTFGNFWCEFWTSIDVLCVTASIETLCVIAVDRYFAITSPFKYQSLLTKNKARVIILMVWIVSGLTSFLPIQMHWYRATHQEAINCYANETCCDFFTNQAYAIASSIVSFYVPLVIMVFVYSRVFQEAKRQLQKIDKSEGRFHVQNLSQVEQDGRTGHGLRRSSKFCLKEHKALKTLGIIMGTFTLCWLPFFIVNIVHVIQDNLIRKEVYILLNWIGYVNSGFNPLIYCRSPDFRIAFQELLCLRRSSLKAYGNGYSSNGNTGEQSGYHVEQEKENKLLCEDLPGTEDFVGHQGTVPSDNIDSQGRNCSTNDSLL
# TCR act = activators of T cell receptors. Potency, µM (titrated, usually from 9.22 µM), for the others: at the highest dose activation of IL-2 secretion, most hits filed as activators. 330,000 tested, under 10 active. AID 504894. primary human leukocytes, anti-CD3, IL-2 HTRF, 48 h; also: % of control where 0% means no effect
#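 Primary human leukocytes receive a-CD3 beads and test compound and are incubated 48 hr. Secreted IL-2 is then assayed by HTRF, measuring 665nm acceptor emission after 320nm excitation of the europium donor.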
# a7 integrin act = activates integrin-mediated alleviation for muscular dystrophy. 350,000 tested, 0.064% active. Potency, µM (highest dose often 38.3 µM), for inactives: at the top dose activation, usual class: activators. alpha7betagal myoblasts, beta-gal FDG fluorescence, 48 h;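 also: potency is read from the fitted curve at half-maximal effect; 100% = response of the positive control SU9516; nearly all actives have a fitted effect of over 60% in size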
#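 Alpha7betagal+/- myoblasts (passage 13) were plated 16-24 hr, then exposed to compounds (1:260 dilution of DMSO stock) for 48 hours at 37C. After MPER lysis, β-galactosidase reporter activity was read as FDG fluorescence (ex 480/em 540) after 30 minutes.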
# PTAP TSG101 blk = blocks PTAP/TSG101 interaction to inhibit HIV-1 budding; Potency, µM (doses to about 115 µM), for inactives: top-dose activity change, negative = inhibition, most hits filed as inhibitors; AID 493005; Fluorescence polarization, FITC-PTAP peptide / Tsg101 binding; Q99816; 340,000 tested, under 10 active; active = well fitted inhibition curve with a large enough effect in the main read-out, with a control signal flat, not every such curve was filed as active; inconclusive = small, poorly fitted or top-dose-only effect, or effect the other way, or a change in a side signal; inactive = no such curve, though single readings can be large or run the other way; also: potency is read from the fitted curve at half-maximal effect; % of control where 0% means no effect
# Target sequence (Q99816 whole entry, looked up): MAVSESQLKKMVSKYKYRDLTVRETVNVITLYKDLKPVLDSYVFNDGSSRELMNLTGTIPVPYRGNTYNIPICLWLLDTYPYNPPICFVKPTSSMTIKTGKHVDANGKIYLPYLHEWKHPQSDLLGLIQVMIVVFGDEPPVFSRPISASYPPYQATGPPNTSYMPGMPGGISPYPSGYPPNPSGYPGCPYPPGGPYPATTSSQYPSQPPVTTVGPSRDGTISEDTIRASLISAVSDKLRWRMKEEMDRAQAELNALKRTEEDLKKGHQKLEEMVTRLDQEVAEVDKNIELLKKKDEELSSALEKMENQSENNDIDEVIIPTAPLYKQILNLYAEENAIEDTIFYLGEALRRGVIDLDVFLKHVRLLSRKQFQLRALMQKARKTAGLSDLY
#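 FP read-out: FITC-PTAP peptide, 50 nM final, binding Tsg101 binding domain, 10 uM final; 20 min, r.t.; 10 mM HEPES pH 7.5, 0.15 M NaCl, 0.01% Tween 20, 3 mM EDTA, 0.1 mM TCEP.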
# * hit, by the source's call; ? = inconclusive; / = no result given; & = joins results of further samples; [ ] = another dose, or the depositor's remark. Unless noted, calls follow the shape of the dose curve; as a rule, active = well fitted curve in the direction sought with a large enough effect; inconclusive = small, poorly fitted or top-dose-only effect, or another doubt; inactive = no such curve, though single readings can be large; an effect the other way counts as inactive or inconclusive.
SMILES,ELG1 DNA repair,TRPV1 agonist,BRCA1 expr up,AT treatment,p53 reactivation,B2AR arrestin,TCR act,a7 integrin act,PTAP TSG101 blk
O=c1[nH]nc(Cc2ccc(-c3ccccc3Cl)o2)c2ccccc12,-5%,11,-21%,7%,9%,0.4%,-3%,5%,-7%
O=[N+]([O-])c1cc(CN2CCN(c3cccc(C(F)(F)F)c3)CC2)c2cccnc2c1O,?,0,-53%,-8%,?,-0.2%,1%,-27%,-7%
COc1ccc(CNc2ccc(Cl)cc2)cc1Cn1ccnc1,-20%,-3,-50%,2%,-2%,-0.3%,1%,-20%,0%
CCCCOc1ccc2c(c1)/C(=C(\C(Cl)=C(Cl)Cl)[N+](=O)[O-])N2,-14%,1,-4%,-4%,4%,-1.8%,-7%,8%,?
COc1cc2nc(NC(=O)c3ccccc3)[nH]c(=O)c2cc1OC,?,0,1%,5%,-3%,-0.6%,-2%,-19%,-5%
CCOc1ccccc1OCCn1nnc2ccccc21,9%,16,-1%,/,5%,0.6%,/,-5%,-5%
COc1ccccc1CN1CCN(Cc2ccc3ccccc3c2)CC1,-5%,11,-1%,0%,7%,1.6%,-5%,-27%,0%
COc1ccc(CNCCC(c2ccc(F)cc2)c2ccc(OC(C)C)cc2)cc1OC (stereo unspecified),?,18,-96%[inhibitor],-11%,-2%,-0.3%,-6%,-63%[inhibitor],0%
CC(Nc1nc(=S)nc(Nc2ccc(F)cc2)[nH]1)c1ccccc1 (stereo unspecified),-21%,2,-53%,-3%,0%,-0.3%,5%,-38%,-7%
NNC(=O)Cn1nc(-c2ccccc2)c2ccccc2c1=O,9%,0,1%,29%,6%,-0.7%,-1%,-25%,-2%
O=C(COC(=O)c1cc([N+](=O)[O-])ccc1NCCO)Nc1ccc2c(c1)OCO2,?,4,-31%,-4%,1%,0.4%,-1%,-12%,-5%
O=C(NN1CCN(Cc2ccccc2)CC1)c1ccc(N2CCOCC2)c([N+](=O)[O-])c1,?,5,0%,2%,-5%,0.1%,3%,-17%,-4%
CCOC(=O)c1cnc2ccc(Cl)cc2c1NCCN(C)C,1%,1,1%,-3%,2%,-0.9%,1%[46.1 µM],-15%,-2%
CC(=O)c1cc(C#N)c(N2CCCC2)nc1C,5%,7,-18%,0%,-5%,-0.1%,5%,10%,-1%
COc1ccc(CCNc2nc3ccc(C)cc3n3cnnc23)cc1OC,-17%,10,-18%&2%,9%,5%,-0.2%,3%,0%,0%
N#Cc1ccc(C2=NC(C(F)(F)F)(C(F)(F)F)c3c(n(Cc4ccco4)c(=O)[nH]c3=O)N2)cc1,?,-2,1%[1.84 µM],7%,-2%,-0.5%,4%,13%,1%
Cc1ccc(-c2nc3ccccc3c(=O)n2Cc2ccccc2)cc1,13%,8,-15%,3%,4%,-0.3%,-3%[46.1 µM],10%,1%
COc1ccccc1N1CCN(CCCCOc2c(OC)cccc2OC)CC1,-22%,-3,-26%,-4%,-3%,-0.4%,-1%,-39%,-3%
O=S(=O)(NC1CCN(Cc2ccccc2)CC1)c1cccc2cccnc12,-3%,-2,1%,-2%,-12%,-0.4%,/,8%[7.66 µM],-3%
Cc1ccc(-n2nnnc2SCC(=O)Nc2nc(-c3ccc(F)cc3)cs2)cc1C,11%,-9,5%,12%,-4%,0.5%,5%,-21%,-3%
O=C(/C=C/c1cccc(C(F)(F)F)c1)Nc1cccc(C(F)(F)F)c1,-12%,29,-92%[inhibitor],-5%,-4%,0.0%,-6%,-54%[inhibitor],-9%
CCOc1cc(NC(=O)C2CCCO2)c(OCC)cc1NC(C)=O (stereo unspecified),-20%,/,2%,-14%,10%,-0.5%,7%,?,-8%
CN1OC(COC(=O)c2ccc(Cl)cc2Cl)CC1c1ccccc1 (stereo unspecified),1%,4,-3%,18%,2%,-0.4%,3%,25%,-6%
O=C(Nc1ccc(-c2csc(-c3ccccc3)n2)cc1)c1ccccc1Cl,5%,-2,-64%,9%,-3%,0.4%,1%,14%,1%
Cc1ccc(SCc2cc(-c3ccc(Cl)cc3)no2)cc1,8%,-6,53%,13%,4%,-0.4%,-6%,16%,-3%
# The list continues.
SMILES,ELG1 DNA repair,TRPV1 agonist,BRCA1 expr up,AT treatment,p53 reactivation,B2AR arrestin,TCR act,a7 integrin act,PTAP TSG101 blk
O=C(/C=C/c1ccccc1)NC(NC(=S)Nc1ccc(Cl)cc1Cl)C(Cl)(Cl)Cl (stereo unspecified),?,4,-72%,10%,20%,-0.1%,-2%[46.1 µM],0%,3%
O=C(Nc1ccccc1)C1=C(O)CC(c2ccco2)CC1=Nc1ccccc1 (stereo unspecified),11%,18,8%,4%,0%,0.5%,-4%,1%,-1%
C/C(CC(=O)Nc1ccc(Cl)c(C(F)(F)F)c1)=N\NC(=O)c1ccccc1O,-11%,?,-86%[inhibitor],-3%,?,-1.0%,0%,-54%[inhibitor],-8%
CC(C)c1cc(C(=O)Nc2cc(Cl)ccc2O)no1,?,-4,?,0%,?,-0.6%,/,18%,-1%
Cn1nc(C(=O)NCCN2CCOCC2)c2ccccc2c1=O,?,-1,4%,/,10%,-0.1%,/,-15%,/
CCCc1cc(C(=O)Nc2cc(Br)ccc2O)no1,?,-2,92%,5%,18%,0.2%,-5%,-9%,-3%
CS(=O)(=O)N1CCc2cc(C(=O)Nc3ccc(COCC(F)(F)F)cc3)ccc21,?,?,-8%,10%,/,0.3%,-7%,-34%,-1%
CC(C)[C@H](NC(=O)c1c(F)cccc1F)C(=O)Nc1cccc(Br)c1,5%,5,-21%,0%,1%,0.6%,-1%,-2%,-7%
N#Cc1ccc(-c2ccc(F)cc2)nc1Oc1ccc(Cl)c(Cl)c1,5%,-3,-2%,2%,5%,-0.8%,-25%,21%,0%
O=C(CN1CCN(c2ccc(Cl)cc2)CC1)Nc1ccc(F)c(F)c1,-6%,-1,-5%,4%,0%,0.3%,2%,18%,-4%
CCN(CC)c1nc2ccccc2c(N)c1-c1ccccc1,?,/,-32%,19%,-8%,-0.1%,0%,-14%,-1%
CCN1CCN(C(=O)c2c(-c3c(Cl)cccc3Cl)noc2C)CC1,3%,0,-3%,6%,2%,-0.2%,-6%,32%,3%
O=C(CC1C(=O)NCCN1Cc1ccc(F)cc1)NCCN1CCCc2ccccc21 (stereo unspecified),8%,-5,-18%,4%,-1%,-0.7%,3%,?,-3%
Cc1ccc(O)c(NC(=S)NC(=O)/C=C/c2ccccc2)c1,4%,-2,0%,-2%,-2%,0.2%,3%,9%,-4%
Cc1ccc(S(=O)(=O)NCc2ccc(C(=O)NCCc3ccc(S(N)(=O)=O)cc3)cc2)cc1,-7%,3,-19%,7%,6%,0.1%,-3%,-15%,-3%
COc1cc2[nH]c3c(Cl)ncnc3c2cc1OC,-15%,-5,14%,-16%,-3%,-0.7%,2%[46.1 µM],41%,-3%
O=C(NC(=S)Nc1ccc(Cl)cn1)C(c1ccccc1)c1ccccc1,?,-2,-104%[inhibitor],-5%,7%,-0.6%,8%,-1%,-6%
Cc1cc(-c2csc(NC(=O)c3ccc(C#N)cc3)n2)c(C)n1Cc1ccco1,8%,0,-13%,-12%,-6%,-0.8%,9%[46.1 µM],-9%,1%
Cn1c(=O)[nH]c(=O)c2c1nc(N1CCN(CCO)CC1)n2Cc1ccccc1Cl,2%,-1,-34%,6%,/,10%,0%,-7%,-7%
O=C(NC(NC(=S)Nc1ccc(Cl)cc1)C(Cl)(Cl)Cl)c1ccco1 (stereo unspecified),-12%,2,-75%,-1%,7%,11%,-1%,-19%,0%
O=C(N/N=C/c1c[nH]c2ccccc12)c1ccn(Cc2ccc(Cl)cc2Cl)n1,-23%,14,-31%,7%,8%,-0.2%,4%,0%,-4%
O=C(CCSc1ccccc1)Nc1ccc(OCc2ccccc2)cc1,29%,-1,11µM*,2%,-5%,-0.7%,5%,11%,-1%
COc1cc(CN2CCN(Cc3ccccc3C(F)(F)F)CC2)cc(OC)c1OC,?,1,-3%,-17%,-2%,-0.8%,2%,-6%,-5%
Cc1ccc(NC(=O)Cn2nnc(C(=O)NCc3cccs3)c2N)cc1F,?,-2,-1%,1%,8%,-0.5%,-5%,-3%,-3%
NC(=O)c1ccccc1OCc1cccc2ccccc12,-6%,11,34%,-5%,0%,-0.4%,2%,?,-6%
O=c1oc(-c2ccccc2NS(=O)(=O)c2ccc3ccccc3c2)nc2ccccc12,-1%,0,-18%,2%,-6%,-0.4%,-2%[46.1 µM],-12%,2%
CCCCCCCCCC(=O)N1CCN(c2cc3c(cc2F)c(=O)c(C(=O)O)cn3CC)CC1,-12%,0,5%,-6%,-3%,0.2%,2%,-35%,-4%

# Bioassay records deposited in PubChem BioAssay by National Center for Advancing Translational Sciences (NCATS).

# Only part of the results is shown; the hit share may differ from the screen's.
